Source: PubChem BioAssay
BJeLR viability = MLPCN primary cell-based screen for lethality selective to Ras in HRASV12 cells; BJeLR (HRASV12) viability, CellTiter-Glo ATP luminescence, 48 h; reference of the scale not given here; inhibition, % (no concentration beside the values); 300,000 compounds, 0.17% hits;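 active means replicate mean above 50%; inconclusive means above 50% but judged a plate artefact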;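 further: 50 nL library stock added to about 25 µL; numbers are from one replicate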
Sa ugtP lethal = growth inhibition of ugtP-null S. aureus, primary screen, RN4220 ugtP deletion, OD600; 16 h; some inactives read as strong as hits; growth inhibition, % (concentration not given with the values); 330,000 compounds, 0.54% hits; AID 1259309, 2017;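 active means z-score under -3 and OD600 up to 0.15 on both plates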;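 further: plate controls were untreated wells for no effect and antibiotic for full effect; wells of about 80 µL received 100 nL stock; the first replicate is given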
PrP 5UTR inh = inhibition of PrP 5' UTR reporter expression. 340,000 compounds, 0.35% hits. cell-based PrP 5' UTR mRNA reporter, plate reader. inhibition, % (concentration not given with the values);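 active means every replicate at 50% or more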;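 further: 0 = median of the neutral control wells; tested in H4 reporter cells; numbers are from one replicate; inactives centre near -14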
Bead autofluor = flagged as autofluorescent in microsphere protease counterscreen; compound autofluorescence counterscreen, microsphere flow cytometry; active compounds read high; fluorescence intensity (no concentration beside the values); 360,000 compounds, 3.1% hits;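 active means at least 3 SD above the mean of all compounds, about 16000 in these data; inconclusive means too few beads counted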;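 further: 100 nL of 1 mM stock went into each well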
RN4220 kill = growth inhibition of S. aureus RN4220, primary screen, OD600. 16 h. inhibition, % (test concentration not listed). 330,000 compounds, 0.33% hits. AID 1259311, 2017;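 active means z-score of -3 or lower and OD600 up to 0.18 on both plates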;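 further: plate controls were untreated cells for no effect and reference antibiotic for full effect; stock transfer was 100 nL into about 80 µL; one replicate is shown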
Mtb hypoxia inh = PubChem AID 1159583; M. tuberculosis hypoxia-regulated fluorescent reporter, fluorescence; fluorescence inhibition, % (test concentration not listed); 300,000 compounds, 0.1% hits;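 active means 35 to 45% if threefold the growth effect, above 45% if 1.5-fold the growth effect; inactive means the rest, general growth blockers included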;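 further: wells of about 50 µL received 100 nL stock; 0% = vehicle wells and 100% = reference inhibitor wells; whole bacteria with a GFP reporter of the hypoxia response; strong numbers were not always called active; many hits fall short of the cut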
Mtb hypoxia inh growth = further read-out of Mtb hypoxia inh, marked with its call; growth inhibition, %; measured here: M. tuberculosis growth (absorbance);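 0% = vehicle and 100% = reference antibiotic; read after six days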
* = called active by the depositor; u = inconclusive; x = no result given.

Sample of the layout, 4 compounds:
Below each compound: BJeLR viability	Sa ugtP lethal	PrP 5UTR inh	Bead autofluor	RN4220 kill	Mtb hypoxia inh	Mtb hypoxia inh growth
COC(=O)c1c(C(=O)OC)c2ccccn2c1C(=O)c1ccccc1
    -5	3	-1	3837	2.5	12	13
CCOc1ccc(CC(=O)NN=C(C)c2cccnc2)cc1OCC
    x	-4	x	x	-0.4	-5	1
CC(=O)NCCc1nc2cc(NC(=O)c3ccc(Cl)cc3)ccc2n1C
    1	16	-34	2851	4.4	10	-7
CCCCNc1ncnc2c1nnn2Cc1ccccc1Cl
    -2	17	-17	3752	1.1	4	12

The whole of this part, previewed entries included:
Below each compound: BJeLR viability	Sa ugtP lethal	PrP 5UTR inh	Bead autofluor	RN4220 kill	Mtb hypoxia inh	Mtb hypoxia inh growth
COC(=O)c1c(C(=O)OC)c2ccccn2c1C(=O)c1ccccc1
    -5	3	-1	3837	2.5	12	13
CCOc1ccc(CC(=O)NN=C(C)c2cccnc2)cc1OCC
    x	-4	x	x	-0.4	-5	1
CC(=O)NCCc1nc2cc(NC(=O)c3ccc(Cl)cc3)ccc2n1C
    1	16	-34	2851	4.4	10	-7
CCCCNc1ncnc2c1nnn2Cc1ccccc1Cl
    -2	17	-17	3752	1.1	4	12
CCOc1ccc2[nH]c(=O)c(C(c3nnnn3Cc3ccco3)N3CCCC(C)C3)cc2c1 (stereo not drawn)
    -2	6	11	3837	3.8	x	x
Cc1cccc(OCCOc2ccccc2C=C(C#N)C#N)c1
    -9	5	-37	2541	19	8	1
CCOC(=O)N1CCN(C(=O)c2ccc3c(c2)N(C)C(=O)/C(=C\c2ccc(OCC)c(OC)c2)S3)CC1
    7	-6	10	4100	5.5	-13	-8
Cc1cc(C)c[n+](CC(=O)c2ccc(-c3ccccc3)cc2)c1
    8	-2	-46	1968	2.0	7	0
O=C(NCCc1ccc2c(c1)OCCO2)c1ccc([N+](=O)[O-])cc1Cl
    3	8	-14	5399	1.8	5	-2
N#Cc1ccc(NC(=O)c2cc(-c3cccs3)on2)cc1
    -9	4	-10	3278	6.4	11	3
NNC(=O)c1cc(-c2ccc(O)cc2)nc2ccc(Br)cc12
    -3	2	-14	4555	3.9	-5	8
Cc1ccc(-n2c(C)nc3ccccc3c2=O)cc1C
    -8	2	2	2227	4.4	10	3
C=CCNC(=O)NC(=O)COC(=O)CCCSc1nc2ccccc2[nH]1
    1	4	-13	4192	2.7	5	16
COc1ccccc1C=NNC(=O)c1c(C)nc2ccc(Cl)cn12
    x	5	x	x	5.0	2	3
COCC(=O)N1CCN(c2nc3ccccc3o2)CC1
    -3	3	-17	4661	1.4	5	3
Cc1cc(C(=O)CN2C(=O)NC3(CCCc4sccc43)C2=O)c(C)n1-c1ccccc1 (stereo not drawn)
    -4	-15	-19	2097	3.8	2	2
C=CCN1C(=O)NC(=O)/C(=C/C=C/c2ccccc2)C1=O
    22	2	-18	4105	0.5	7	1
CCOc1ccc(N2C(=O)CC(SC(=NC)Nc3ccc(F)cc3)C2=O)cc1 (stereo not drawn)
    2	-1	0	4656	-1.7	x	x
O=C(COc1ccc(Br)cc1)NC(=S)Nc1ccccc1N1CCOCC1
    -9	-4	-9	5984	-6.3	6	9
CN(CC(=O)Nc1ccc(F)cc1)C(=O)CCc1nc2ccccc2c(=O)[nH]1
    -1	9	-4	5942	1.3	2	10
Cc1ccccc1C(=O)N1CCN(c2ccc(NC(=O)c3ccco3)cc2Cl)CC1
    -1	31	13	3420	1.2	-24	-9
CC(C)COc1ccc(C(=O)Nc2ccc(N3CCOCC3)cc2N2CCOCC2)cc1
    -11	6	-2	5940	2.4	-8	-9
CC(C)Oc1cc(NC(=O)CS(=O)(=O)CC(=O)N(C)C)c(Cl)cc1Cl
    -3	2	-1	4963	-0.7	0	8
CN1CCN(S(=O)(=O)c2ccc(N(C)Cc3ccc(OC(F)F)cc3)c([N+](=O)[O-])c2)CC1
    -3	8	-11	u	2.5	3	5
CC1CCN(C(=O)Cn2c(=O)oc3cc(S(=O)(=O)N4CCCCC4)ccc32)CC1
    6	6	-26	x	3.5	-7	-8
NC(=O)CCC(NS(=O)(=O)c1ccc(Cl)cc1)C(=O)NCC1CCCCC1 (stereo not drawn)
    -5	19	-14	4581	1.2	-10	-3
CNC(=O)N(C1=NCCCCC1)c1ccc(Br)cc1
    -4	6	-16	2192	3.8	12	1
COc1ccc(NC(=O)CSc2nnc(Cc3ccccc3)c(=O)n2N)cc1OC
    7	2	-10	6085	2.8	-5	7
Cc1ccc2nc3c(c(N)c2c1)CCN3C
    -1	x	-41	4050	x	x	x
C=CCn1c(NC)cc(=O)n(C)c1=O
    -14	-3	-25	4238	4.6	20	11
O=C(Nc1ccccc1[N+](=O)[O-])c1cc(S(=O)(=O)Nc2ccccn2)ccc1Cl
    -12	-3	-19	5344	-0.3	4	9
COC(=O)c1ccc(NC(=O)CSc2nnc(C(C)NC(=O)c3ccccc3Cl)n2C)cc1 (stereo not drawn)
    2	-4	-9	3973	4.6	x	x
O=C(NC1CCCC1)C(c1ccccc1F)N(C(=O)c1ccco1)C1CCCC1 (stereo not drawn)
    11	2	-9	2755	4.8	3	7
COc1nc(-c2ccc(C)cc2)ccc1-c1noc(-c2cccnc2)n1
    -4	-11	-18	3859	2.1	1	0
CN(C(=O)c1ccc(NC(=O)Cc2ccc(NC(=O)C3CCCN(C(=O)CCc4ccccc4)C3)cc2)cc1)C1CCCC1 (stereo not drawn)
    x	-5	-15	3875	2.2	-10	8
CC(=O)Nc1ccc(Nc2ncnc3c2cnn3-c2ccc(C)cc2C)cc1
    4	15	-5	u	-2.1	8	7
Cc1ccc(C(=O)COC(=O)c2cc(=O)[nH]c3ccccc23)cc1C
    -1	-4	-28	2646	1.7	5	9
COc1ccccc1C(=O)NCCC(=O)NCc1cccnc1
    x	3	-4	8611	5.5	1	-1
COc1ccc(OCC(O)CNC(=O)c2ccccc2)cc1 (stereo not drawn)
    6	19	-2	4457	4.8	9	3
O=C(COc1coc(CN2CCc3ccccc32)cc1=O)Nc1ccc([N+](=O)[O-])cc1
    6	2	-17	5871	2.0	-1	-12
O=C(c1cn(Cc2ccccc2)nc1-c1cccnc1)N1CCc2ccccc2C1
    x	1	-19	4138	3.7	5	-2
CCN1CC=C2C(C#N)=C(N)C(C#N)(C#N)[C@H](c3ccoc3)[C@H]2C1
    4	1	3	4874	3.8	-1	5
N#CCCN(C(=O)COc1ccc(Br)cc1F)c1ccc(F)cc1
    -1	2	-14	4919	2.9	3	5
COc1cccc(OC)c1C(=O)Nc1ccc(N2CCCCC2)cc1
    7	9	-14	2708	4.7	x	x
COc1ccccc1C(=O)NCC(=O)N1CCN(C/C=C/c2ccccc2)CC1
    x	4	-11	8247	4.2	11	11
O=C(O)c1ccccc1C(=O)NC1CCN(c2nccc(C(F)(F)F)n2)CC1
    4	3	-24	3788	3.1	15	8
S=C1NCC(CC2CCCCC2)N1CCc1cccc2ccccc12 (stereo not drawn)
    x	5	x	x	-6.5	2	7
Cn1cnc(S(=O)(=O)Nc2ccc(C(F)(F)F)cc2)c1
    -2	-2	-22	4982	-0.2	x	x
CC(C)(C)c1ccc(Oc2ccc(NC(=O)c3ccccc3C(=O)O)cn2)cc1
    -10	-5	x	3836	0.5	-8	-1
C=CCN1C(=O)C(CC(=O)NCC)SC1=Nc1ccc(S(N)(=O)=O)cc1 (stereo not drawn)
    3	4	-7	8880	0.3	3	9
CC(C)NC(=O)Nc1ccc(Br)cc1Cl
    0	-6	-22	2189	-0.3	0	17
CCNc1nc(Oc2ccccc2)nc(OC(C)C(=O)OCC)n1 (stereo not drawn)
    -7	4	-1	3621	5.9	x	x
O=C(Nc1sc2c(c1C(=O)O)CCC2)c1ccccc1Cl
    -7	-15	-19	3907	8.4	-6	-4
COc1ccc(-n2nc(C(=O)NCC(=O)NCCCN3CCCCCC3)c3ccccc3c2=O)cc1Cl
    -2	5	43	3991	4.8	12	0
COCc1ccc(CN2CCC(n3nccc3NC(=O)C(OC)c3ccccc3)CC2)o1 (stereo not drawn)
    10	1	-4	4542	-0.9	7	-1
COc1cccc2c(=O)n(CC(=O)N3CCN(c4ccccc4)CC3)ccc12
    -8	-22	-9	6920	-17	5	5
CCOC(=O)C1=C(CC)Nc2ccccc2N=C1NC(=O)CCNC(C)=O
    9	5	-13	3375	4.5	4	-2
COc1ccc(NC(=O)CN(C)C(=O)c2ccc(S(=O)(=O)Nc3ccccc3F)cc2)cc1
    0	9	-22	6796	3.1	18	7
Cc1ccc(C(=O)NC(=S)Nc2cccc(NC(=O)c3ccccc3)c2)cc1[N+](=O)[O-]
    -17	14	1	2053	9.5	13	4
O=C(c1cc(C2CC2)on1)N1CCCC(N2CCN(c3ccc(F)cc3)CC2)C1 (stereo not drawn)
    6	6	-9	5019	0.3	2	2

Remaining list, next part.
Below each compound: BJeLR viability	Sa ugtP lethal	PrP 5UTR inh	Bead autofluor	RN4220 kill	Mtb hypoxia inh	Mtb hypoxia inh growth
CC(=O)NS(=O)(=O)c1ccc(NC(=O)NC2CCCCC2)cc1
    -6	3	-11	23046*	5.9	9	8
NC(=S)NN=Cc1c(O)c(Br)cc2oc3c(c12)CCCC3
    x	-15	x	x	27	2	-11
CCCn1nc(C(=O)NNC(=O)C2CSC3(C)CCC(=O)N23)c2ccccc2c1=O (stereo not drawn)
    0	0	-13	u	1.6	3	3
Cc1ccc(CN2C(=O)CCC2C(=O)NCc2ccc3c(c2)OCO3)cc1 (stereo not drawn)
    4	-2	-7	3055	2.9	-4	2
COc1ccc(CC(=O)Nc2ccc(-c3csc(C)n3)cc2)cc1
    -1	3	-2	3054	-1.1	-1	-13
O=C(CCS(=O)(=O)c1ccccc1)Nc1ccc(N2CCOCC2)cc1
    1	-12	-8	2682	0.3	-6	1
O=C1c2ccc(-c3ccc4c(c3)C(=O)N(CCO)C4=O)cc2C(=O)N1CCO
    8	-2	-4	3209	4.6	11	4
O=C(COC(=O)c1ccc(Br)o1)NCC1CCCCC1
    x	0	-29	3759	-0.7	3	5
Cc1ccc(NC(=O)CSc2nc(=O)cc(N)n2-c2ccccc2)cc1
    -10	7	-5	4224	2.7	x	x
C=CCNC(=S)N1CCC(C(N)=O)CC1
    0	4	-14	4089	6.6	13	5
COc1ccc(C2c3c(oc4ccccc4c3=O)C(=O)N2Cc2ccncc2)cc1OC (stereo not drawn)
    -5	-3	x	x	3.3	5	7
CC1CN(Cc2cc(=O)oc3cc(O)ccc23)CC(C)O1 (stereo not drawn)
    -12	-5	-7	6130	-1.3	2	3
CCN(CC)S(=O)(=O)c1cccc(-c2nnc(SCCOc3ccc(Cl)cc3)o2)c1
    6	-7	-1	4515	-5.9	-2	8
CC(=NNC(=O)c1cc(-c2cccs2)nc2ccccc12)c1ccccn1
    x	-3	x	x	6.4	11	0
CC(=NNc1ccc(C(=O)c2c(C)cc3ccccn23)cc1[N+](=O)[O-])c1ccc(O)cc1
    x	-1	x	x	12	3	-5
Cc1cc(OC(=O)CCNC(=O)OC(C)(C)C)c2c3c(c(=O)oc2c1)CCC3
    -5	-20	-12	22958*	-4.6	-3	11
O=C(Nc1ccc(Cl)cc1)c1sccc1-n1cccc1
    -12	15	-28	2591	12	7	-3
O=C(O)CCC(=O)Nc1ccccc1N1CCOCC1
    -12	-5	-27	3035	-16	-1	-3
OCc1ncc(-c2ccccc2)s1
    -2	5	-14	3774	4.9	12	5
C/C(=N/OC(=O)c1cccc(Cl)c1)c1nccs1
    4	x	-18	6888	x	x	x
COC(=O)Nc1cc(C(F)(F)F)ccc1N1CCN(c2ccccc2)CC1
    7	15	-11	8246	2.9	4	1
COc1ccc(OC)c(NC(=O)c2cccc(S(=O)(=O)N3CCN(C(C)=O)CC3)c2)c1
    -4	4	5	3681	0.5	2	9
Cc1ccc2nc(NC(=O)CSc3nncc(=O)n3N)sc2c1
    12	x	-13	7654	x	x	x
On1c(-c2ccccc2Cl)nc2ccccc21
    0	-3	-34	4662	-2.4	3	1

Outcome played no part in choosing rows; any-hit rate near 4%.
